# Source: PubChem (ICCB-Longwood Screening Facility, Harvard Medical School)
# HCMV UL50-53 inh: disrupts HCMV UL50-UL53 complex binding | hit rate 0.15% among 190,000 | HTRF UL50-UL53 interaction, normalized percent inhibition | inhibition, % (concentration not given with the values);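 active = both replicates at 50% or more, plus weaker picks with an unusually low signal ratio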;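 note: stock transfer was 100 nL into about 20 µL; 0% = negative control wells and 100% = wells with untagged competitor protein; inactives centre near -12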
# Sa growth inh: inhibitors of Staphylococcus aureus growth at 42 °C; S. aureus RN4220 growth, OD600, 20 h; hits give low values; relative growth, % (concentration not given with the values); hit rate 0.53% among 170,000; AID 720641;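 active = growth at 42 °C up to 50% and 20 or more points under that at 30 °C, or under 10% at both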;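 note: 300 nL library stock went into each well; scaled to the means of positive and negative controls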
# GIV-Gai inh: GIV-Galpha-i interaction inhibition. P08753. Galpha-i3/FITC-GIV peptide fluorescence polarization, 90 min; hits give low values; scaled: aluminum fluoride 0%, vehicle 100%. percent of control (FP), % (no concentration beside the values). hit rate 0.42% among 210,000. AID 1224905;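 active = replicate mean at 85% of control or lower, very high polarization wells dropped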;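 note: wells of about 15 µL received 100 nL stock; the first replicate is given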
# Target sequence (P08753 whole entry, looked up): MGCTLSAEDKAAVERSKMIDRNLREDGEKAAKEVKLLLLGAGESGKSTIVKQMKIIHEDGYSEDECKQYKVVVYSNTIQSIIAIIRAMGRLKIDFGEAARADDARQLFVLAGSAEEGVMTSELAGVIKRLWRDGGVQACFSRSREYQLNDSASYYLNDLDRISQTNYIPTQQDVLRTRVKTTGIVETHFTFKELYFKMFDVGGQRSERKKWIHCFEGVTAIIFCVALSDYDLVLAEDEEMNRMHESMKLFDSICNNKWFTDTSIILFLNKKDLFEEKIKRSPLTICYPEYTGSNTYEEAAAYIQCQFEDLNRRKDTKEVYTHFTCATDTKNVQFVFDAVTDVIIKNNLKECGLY
# Sa growth inh second temp: also measured in Sa growth inh; calls as there; relative growth, %; measured here: growth at 30 °C;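 optical density after 20 h as mean of two plates; 100% = untreated growth and lower means inhibition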
# Active calls of the source: *; · = not tested or not shown; & = joins results of further samples. This is a random part of the collection (roughly 0.79% active in at least one column).
# The opening 6 compounds as a preview:
SMILES	HCMV UL50-53 inh	Sa growth inh	Sa growth inh second temp	GIV-Gai inh
Cc1ccc(C)c(NC(=O)CCS(=O)(=O)c2ccc3c(c2)CC(=O)N3C)c1	-24	·	·	103
COC(=O)C1=C(NC(=O)c2ccc(S(=O)(=O)N3CCOCC3)cc2)CCS1	·	78	89	102
CCCNC(=O)C1CCCN(c2nc(C)nc3onc(C)c23)C1 (stereo not given)	17	·	·	102
Cc1noc(C)c1-c1nc(COc2ccc(/C=C(/C#N)S(C)(=O)=O)cc2)no1	·	96	84	103
CC(=O)Nc1ccc(-n2c(CCC(=O)O)ccc2-c2ccc(Br)cc2)cc1	7	92	70	104
CN(C)c1nc(SCCOC(=O)COc2ccc(Cl)cc2Cl)nc(N(C)C)n1	·	111	88	104

# Results (from the top)
SMILES	HCMV UL50-53 inh	Sa growth inh	Sa growth inh second temp	GIV-Gai inh
Cc1ccc(C)c(NC(=O)CCS(=O)(=O)c2ccc3c(c2)CC(=O)N3C)c1	-24	·	·	103
COC(=O)C1=C(NC(=O)c2ccc(S(=O)(=O)N3CCOCC3)cc2)CCS1	·	78	89	102
CCCNC(=O)C1CCCN(c2nc(C)nc3onc(C)c23)C1 (stereo not given)	17	·	·	102
Cc1noc(C)c1-c1nc(COc2ccc(/C=C(/C#N)S(C)(=O)=O)cc2)no1	·	96	84	103
CC(=O)Nc1ccc(-n2c(CCC(=O)O)ccc2-c2ccc(Br)cc2)cc1	7	92	70	104
CN(C)c1nc(SCCOC(=O)COc2ccc(Cl)cc2Cl)nc(N(C)C)n1	·	111	88	104
COc1ccc(Cn2ccc3nc(C)c(C(=O)NCc4cccc(OC)c4)cc3c2=O)cc1	·	71	87	99
Cc1cccc(OCC(=O)OCc2cc(=O)n3nc(C4CC4)sc3n2)c1	·	95	85	117
Cc1ccc(-n2nc(C(=O)N3CCN(c4cccc(C(F)(F)F)c4)CC3)c3c4ccccc4n(C)c3c2=O)cc1	-12	103	88	102
Cc1ccc(-c2ccc(OCc3c(C)noc3C)c(C)c2)cc1	-3	87	87	·
c1cncc(-c2nc(NCc3ccco3)c3ccccc3n2)c1	8	89	81	104
O=C1CN(C(=O)/C=C/c2ccc(Br)cc2)CCN1	-63	101	85	·
NCCCn1cnc2ccccc21	2	72	100	97
CCOC(=O)c1c(CSc2nnc(CN3CCCCCC3=O)n2CC)nc2ccccc2c1C	-27	104	78	·
CCCNc1ccc(-c2nc(-c3ccncc3)no2)cc1[N+](=O)[O-]	-9	97	94	98
O=c1oc2cc(O)c(Cl)cc2c2ccccc12	-11	·	·	102
CC(=O)N1CCC(N(C(=O)NC2CCCC2)C(C)C)CC1	-4	93	94	114
CCOc1cccc(NC(=O)c2nc(C)oc2C(F)(F)F)c1	0	123	92	110
CC(O)C(=O)Nc1cc(Cl)cc(Cl)c1 (stereo not given)	1	113	96	110
CCNc1cccc2c1C(=O)N(C)C2=O	-68	61	89	6.2*
Cc1ccc(OCCNC(=O)c2ccc(NC(=O)CC#N)cc2)cc1	1	104	93	·
C=CCn1c(SC)nc2c(c1=O)C1(CCCCC1)Cc1ccccc1-2	·	104	84	96
Cc1ccc(Cn2cc(C(=O)Nc3cccnc3)ccc2=O)cc1	-6	116	90	104
CCCCN(CC)CCCNC(=O)Cn1ncc2c3ccccc3n(Cc3ccccc3F)c2c1=O	-10	114	82	103
O=C(Nc1cc(F)ccc1F)c1cc2nc(-c3ccco3)cc(C(F)(F)Cl)n2n1	·	94	88	106
COc1ccc(C(=O)N2c3cc(C)ccc3C(Nc3ccc(C)cc3)CC2C)cc1 (stereo not given)	-6	·	·	101
O=C(Oc1cccc2cccnc12)C1CCCCC1	-9	182	5	·
Cc1cc2n(n1)CCCN2CC(=O)Nc1cccc(Cl)c1C	4	100	100	113
COc1ccc(CCNc2nnc(Cc3ccc(Cl)cc3)c(=O)[nH]2)cc1OC	-30	93	84	106
CC(Cc1ccco1)NC(=O)Cn1c(=O)oc2ccccc21 (stereo not given)	5	90	103	106

# 3 of the compounds above, with each value named.
> Cc1ccc(OCCNC(=O)c2ccc(NC(=O)CC#N)cc2)cc1
  HCMV UL50-53 inh = 1	Sa growth inh = 104	Sa growth inh second temp = 93	GIV-Gai inh = ·

> C=CCn1c(SC)nc2c(c1=O)C1(CCCCC1)Cc1ccccc1-2
  HCMV UL50-53 inh = ·	Sa growth inh = 104	Sa growth inh second temp = 84	GIV-Gai inh = 96

> Cc1ccc(Cn2cc(C(=O)Nc3cccnc3)ccc2=O)cc1
  HCMV UL50-53 inh = -6	Sa growth inh = 116	Sa growth inh second temp = 90	GIV-Gai inh = 104

# More compounds follow.
SMILES	HCMV UL50-53 inh	Sa growth inh	Sa growth inh second temp	GIV-Gai inh
CCn1c(C(=O)O)c(CNCc2ccc3c(c2)OCO3)c2ccccc21	-9	103	90	105
COc1cc2nc(NCCc3ccc(Cl)cc3)n3nc(-c4ccccc4)nc3c2cc1OC	-4	109	87	102
O=C1CCCc2cc(S(=O)(=O)N3CCCC(C(=O)NCc4ccc(Cl)cc4)C3)ccc2N1 (stereo not given)	-4	97	88	108&107
c1ccc(-c2noc(CN3CCCC3c3cccs3)n2)cc1 (stereo not given)	-2	94	95	·
Cc1cc(C(=O)OCC(=O)N2c3ccccc3Sc3ccccc32)c2ccccc2n1	·	93	91	102
COc1ccc(NC(=O)Nc2cc3[nH]c(=O)[nH]c3cc2C)cc1OC	-24	·	·	104
CCOC(=O)c1c(C)oc2cc(Br)c(OC/C=C/c3ccccc3)cc12	-12	·	·	104
CCn1c(O)c(/C=c2/c(C)c(C#N)c3nc4ccccc4n3c2=O)n(CC)c1=S	·	77	58	-48*
CCOC(=O)N1CCN(C(=O)c2ccc3c(c2)N(Cc2ccccc2)C(=O)c2ccccc2S3=O)CC1 (stereo not given)	5	102	88	102
O=S(=O)(c1cccc2cccnc12)N1CCCN(Cc2c(F)cccc2Cl)CC1	-13	81	80	100
Fc1ccccc1CNc1ncnc2c1oc1ccccc12	-32	81	93	·
c1ccc(C2C3=C(CCCC3)Nc3ncnn32)cc1 (stereo not given)	-2&-7	138	92	105
COc1ccc(-n2nc3c(c2NC(=O)/C=C\c2ccc4c(c2)OCO4)CS(=O)(=O)C3)cc1	·	89	84	105
CCc1ccccc1NC(=O)c1ccc2snnc2c1	·	126	92	97
O=C(c1ccc(NS(=O)C23CC4CC(CC(C4)C2)C3)cc1)N1CCCC1 (stereo not given)	2	118	105	105
COc1ccc(Nc2nc(C)nc(N)c2S(=O)(=O)c2ccccc2)cc1	-11	109	78	101
CCOc1ccc(C(=O)Nc2cc(-c3nc4ccccc4o3)ccc2C)cc1Cl	-28	102	82	99
Cc1ccc(N(CC(=O)N2c3ccccc3CC2C)S(=O)(=O)c2c(C)nn(C)c2C)cc1 (stereo not given)	-9	·	·	98
COc1cccc(C2=NS(=O)(=O)N(C)C(C(=O)Nc3ccn(Cc4ccc(C)cc4)n3)=C2)c1	-17	·	·	104
c1ccn(-c2ccc(-c3ccc(-n4cccc4)cc3)cc2)c1	-15	114	100	107
CCOC(=O)N[C@H](Cc1c[nH]c2ccccc12)C(=O)Nc1cccc(Cl)c1	1	102	94	109
CC(C)C(C(=O)OCC(=O)c1ccc(Br)cc1)N1C(=O)C2C3C=CC(C3)C2C1=O (stereo not given)	-27	·	·	100
CCc1ccc(NC(=O)CSc2ccc(-c3ccco3)nn2)cc1	·	73	61	99
Nc1ccc(-c2ccc(CO)o2)cc1	-9	102	66	107
COc1ccc(NC(=O)CCNS(=O)(=O)c2ccc3c(c2)CCCC(=O)N3)cc1	·	96	85	104
CCCN1CCN(CCCNC(=O)Cn2c(-c3cccs3)cc3ccccc32)CC1	·	91	91	103
CNC(=O)c1ccc2c(c1)OCCO2	-29	87	85	·
CCC(C)N(CN1C(=S)SC2=NC(=O)CCCN21)C(C)CC (stereo not given)	-36	74	67	100
Cc1ccc(CN2CCc3ccccc3C2)o1	-11	102	116	96
FC(F)(F)c1ccncc1-c1nc(-c2ccc(Cl)cc2)cs1	0	94	87	103
COc1cc(-c2nnc(COC(=O)C3=NN(c4cc(C)ccc4C)C(=O)CC3)o2)cc(OC)c1OC	-16	93	99	·
CCCCn1c(-c2ccccc2)nn(S(=O)(=O)c2ccc(Br)cc2)c1=O	-1	91	88	·
CCC(CO)NCC(=O)Nc1ccc(C)cc1F (stereo not given)	-6	101	101	·
Cc1ccccc1CCNC(=O)c1ccc2c(c1)nc1n2CCOC1	·	89	92	105
COCCOC(=O)c1cnn2c(C(F)(F)F)cc(-c3ccc(F)cc3)nc12	-94	·	·	99
CC(C)CC(C(=O)O)n1c(O)c(C2=c3ccccc3=NC2=O)sc1=S (stereo not given)	-32	74	84	100
COc1ccc(NC(=O)Cc2c[nH]c3ccccc23)cc1	·	102	90	109
CCC1CCCCN1CC(=O)N1CCCc2c1c(=O)oc1ccc(OCc3ccccc3)cc21 (stereo not given)	-10	107	73	102
O=C(CSc1ccccc1F)Nc1nc(-c2cccs2)cs1	-38	103	61	·
COc1ccc(Br)cc1C1SCCN1C(=O)c1cc2ccccc2oc1=O (stereo not given)	-12	·	·	103
CCn1c(NCc2ccc(OC)c(OC)c2)nc2ccccc21	4	112	100	105
CCOC(=O)c1ccccc1NC(=O)c1nn(-c2ccccc2)c(=O)cc1OC	-5	·	·	104
O=C(c1sc2ccccc2c1Cl)N1CCN(c2ccc(C(F)(F)F)cc2[N+](=O)[O-])CC1	-2	·	·	109
COc1ccccc1N1CCN(c2ncnc3onc(-c4ccc(F)cc4)c23)CC1	·	92	96	104
O=C(Cn1c(=O)oc2cc(S(=O)(=O)N3CCCCCC3)ccc21)Nc1ccc(F)cc1F	-11	107	69	103
CCOc1ccc(C(=O)Nc2cccc(OCc3cc(=O)n4ccccc4n3)c2)cc1	·	114	101	109
CSc1ccc(C2NC(=O)c3ccccc3N2)cc1 (stereo not given)	-5	86	82	95
CCn1c(SCc2nc3ccccc3c(=O)[nH]2)nnc1-c1ccccc1F	2	107	102	104
Cn1cccc1C(C(=O)NC1CCCCC1)N(C(=O)Cn1nnc2ccccc21)c1cnc2ccccc2c1 (stereo not given)	20	97	88	100
Cc1csc(N(C(=O)Cc2csc(-c3ccccc3)n2)c2ccccc2)n1	2	121	96	·
O=C(CSc1ccccc1)Nc1nnc(C2CC2)s1	-7	103	94	·
CC(C)NC(=S)N1CCN(Cc2ccc3c(c2)OCO3)CC1	21	103	93	·
O=C(Nc1ccc(C(=O)N2CCC(c3nc(-c4ccccc4)no3)CC2)cc1)c1ccccc1	-14	·	·	98
Clc1cccc(-n2ncc3c(N4CCCCCC4)ncnc32)c1	·	129	83	107
Cc1cc(C)c2c(N)c(-c3nnc(SCc4ccc(Cl)cc4)n3C)sc2n1	-18	96	94	107
CCc1ccc(C2Nc3ccccc3S(=O)(=O)N2)cc1 (stereo not given)	-22	·	·	102
Cc1[nH]c(=O)[nH]c(=O)c1S(=O)(=O)NCc1cccnc1	1	107	94	98
CC(C(=O)Nc1ccccn1)N1C(=O)C2C3C=CC(C3)C2C1=O (stereo not given)	-10	83	88	103
COc1cc2ncc3c(-c4ccc(C)cc4)nn(-c4ccc(F)cc4F)c3c2cc1OC	·	95	88	99
CC(=O)NC1C(=O)N=C(SCC(=O)NC(C)c2ccccc2)NC1=O (stereo not given)	-28	97	96	98

# Later entries:
SMILES	HCMV UL50-53 inh	Sa growth inh	Sa growth inh second temp	GIV-Gai inh
COc1ccccc1C(=O)Nc1sc(Nc2ccccc2)nc1C(N)=O	·	129	104	101
O=C(O)c1cnn2c1ncc1c3ccccc3ccc12	-76	99	68	107
CC1=CC(=C(C#N)C#N)C=C(C)N1Cc1ccncc1	-17	113	98	·
CCn1c(-c2ccccc2)c(C2=NNC(=NC(C)COC)SC2)c2ccccc21 (stereo not given)	-10	78	78	·
CCCCOc1ccc(-c2nn(-c3ccccc3)cc2C2NC(=O)NC(C)=C2C(=O)OCC)cc1 (stereo not given)	-28	108	85	108
COC(=O)c1ccc2c(=O)n3c(nc2c1)SC1CS(=O)(=O)CC13 (stereo not given)	4	102	87	101
Cc1nn(Cc2ccc(C(=O)n3cc(Cl)cn3)o2)c(C)c1Cl	5	106	92	·
O=c1ccc(N2CCCN(S(=O)(=O)c3ccc4c(c3)CCCC4)CC2)nn1-c1ccc(F)cc1	-44	·	·	100
Cc1cccc(CN2CCN(Cc3c[nH]c4ccccc34)CC2)c1	-14	·	·	100
CCc1ccc(C2C3=C(CC(c4ccc(O)cc4)CC3=O)Nc3onc(C)c32)cc1 (stereo not given)	-22	·	·	110
COC(=O)CN1C(=O)COc2cc(S(=O)(=O)NCc3ccc(Cl)cc3)ccc21	·	94	78	104
CN1CCCN(C(=O)c2cnccn2)c2nc3ccccc3nc21	-41	81	90	·
COc1ccc(-c2nc(SCC(=O)NCCc3ccc(OC)c(OC)c3)n[nH]2)cc1	·	51	72	101
CSc1ccc(S(=O)(=O)N(C)C)cc1	-2	108	101	99
COc1ccc(CCNC(=O)Cn2nc(C)n3c(cc4cc(F)ccc43)c2=O)cc1OC	-2	92	80	100
